FGF22 binding: binders of human FGF22 protein, primary screen, FGF22 synaptogenesis inhibitor project, biophysical, thermal shift, single point | AID 651658, 2012 | calls only at 9.99 µM | recombinant FGF22 thermal shift, SYPRO orange fluorescence; percent of sucrose octasulfate shift, DMSO zero | hit rate 1.5% among 340,000 | Fibroblast growth factor 22 (Homo sapiens), Q9HCT0;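 active = melting point raised past a set limit in the mean and every replicate; inconclusive = no clear call; three in four hits are not shown here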
Target sequence (Q9HCT0 whole entry, looked up): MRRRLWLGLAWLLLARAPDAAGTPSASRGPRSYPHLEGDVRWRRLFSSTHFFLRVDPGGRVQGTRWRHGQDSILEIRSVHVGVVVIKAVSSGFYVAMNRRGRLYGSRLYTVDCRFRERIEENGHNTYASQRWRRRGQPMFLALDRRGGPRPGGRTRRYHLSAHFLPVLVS
RanGTP-Impb inh: inhibitors of RanGTP-importin-beta interaction, primary screen, biochemical, FRET, CFP-Ran, YFP-importin-beta, homogeneous; cell-free CFP-Ran/YFP-importin-beta FRET ratio; inhibition, % (concentration not given with the values); hit rate 1.1% among 300,000;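 active = most replicates above 15%; inconclusive = exactly half above 15%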;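 note: 0% = DMSO wells and 100% = Ran loaded with GDP instead of GTP; wells of about 40 µL received 100 nL stock; the first replicate is given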
AF4-AF9 inh: inhibitors of AF4 peptide binding to AF9, primary screen, biochemical, AlphaScreen, biotin-AF4 peptide, FLAG-AF9, single point; hit rate 0.47% among 350,000; Protein AF-9 (Homo sapiens), P42568; inhibition, % at 10 µM;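 active = every replicate reaching a set inhibition limit, whatever the replicate mean, cut at about 25% in these data; inconclusive = mean inhibition reaches that limit but some replicates miss it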;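 note: 0% = plate neutral control median and 100% = total signal loss; the record names both 10 and 1 µM as test concentration; the first replicate is given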
Target sequence (P42568 whole entry, looked up): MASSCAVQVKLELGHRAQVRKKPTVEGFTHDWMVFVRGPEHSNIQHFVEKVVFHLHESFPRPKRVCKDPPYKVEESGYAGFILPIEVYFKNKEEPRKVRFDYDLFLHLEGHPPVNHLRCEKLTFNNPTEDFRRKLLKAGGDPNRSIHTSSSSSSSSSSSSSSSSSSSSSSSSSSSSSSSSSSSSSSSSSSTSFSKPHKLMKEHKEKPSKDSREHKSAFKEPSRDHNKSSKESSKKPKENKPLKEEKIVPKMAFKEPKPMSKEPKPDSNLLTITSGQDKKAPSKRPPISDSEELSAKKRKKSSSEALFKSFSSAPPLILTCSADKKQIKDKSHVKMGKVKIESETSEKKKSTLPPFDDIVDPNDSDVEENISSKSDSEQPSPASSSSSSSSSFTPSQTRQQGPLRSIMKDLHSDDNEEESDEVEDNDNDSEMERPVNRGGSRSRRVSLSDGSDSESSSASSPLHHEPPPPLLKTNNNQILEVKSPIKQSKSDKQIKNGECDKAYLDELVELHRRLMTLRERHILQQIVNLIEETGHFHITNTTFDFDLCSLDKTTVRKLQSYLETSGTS
UCH37 DUB inh: inhibitors of human UCH37 deubiquitinase, primary screen, biochemical, Ub-AMC cleavage, fluorescence; Ubiquitin carboxyl-terminal hydrolase isozyme L5 (Homo sapiens), Q9Y5K5; purified proteasome/UCH37; inhibition, % (no concentration beside the values); hit rate 0.33% among 330,000; AID 588478, 2011;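 active = mean of two replicates above 20%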;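 note: 0% = compound-free wells with enzyme and 100% = wells lacking proteasome; stock transfer was 100 nL into about 20 µL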
Target sequence (Q9Y5K5 whole entry, looked up): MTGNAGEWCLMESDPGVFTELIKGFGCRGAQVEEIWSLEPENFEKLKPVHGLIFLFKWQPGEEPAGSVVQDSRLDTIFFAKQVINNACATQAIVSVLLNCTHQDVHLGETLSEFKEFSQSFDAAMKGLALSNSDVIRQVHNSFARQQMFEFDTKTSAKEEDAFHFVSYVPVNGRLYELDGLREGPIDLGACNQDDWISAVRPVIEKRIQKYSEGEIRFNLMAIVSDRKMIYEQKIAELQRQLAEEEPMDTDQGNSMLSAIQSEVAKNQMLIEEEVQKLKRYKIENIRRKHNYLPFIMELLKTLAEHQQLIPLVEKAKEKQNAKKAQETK
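assay system = human UCH37 enzyme supplied as purified proteasome complex | amount = proteasome at 0.15 nM in the dispensed enzyme solution | schedule = 30 min compound-proteasome preincubation then 25 min substrate reaction, room temperature | measured by = fluorescence, ex 355 nm, em 460 nm | benchmarks = no-proteasome wells (full inhibition) and compound-free wells (no inhibition)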
Vif TR-FRET: inhibitors of Vif binding to APOBEC3G peptide, primary screen, biochemical, TR-FRET, GST-Vif 1-94, biotin-A3G peptide, dose response retest (AID 1117319). TR-FRET GST-Vif / biotin-A3G peptide binding; higher % means a stronger effect; test concentration not given here; strong numbers were not always called active. inhibition, %; hits with a dose series show IC50 in µM. hit rate 0.57% among 260,000;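 active = above the screen mean plus three standard deviations and confirmed in dose response; inconclusive = results disagree or hit not tested in dose response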;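 note: Vif residues 1-94 fused to GST binding biotinylated APOBEC3G peptide 110-148; 0% = full assay without inhibitor and 100% = GST in place of GST-Vif; retest series ran down from 100 µM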
Ecoli growth: E. coli growth inhibition, primary screen, OD600; Escherichia coli growth, 23 h; active compounds read low; OD600 absorbance (test concentration not listed); hit rate 0.21% among 330,000; AID 1053175, 2014;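 active = OD600 absorbance below the run mean of sample wells minus 3.6 SD, in any replicate, cut at about 0.56 in these data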;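 note: stock transfer was 300 nL into about 60 µL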
HNF4A DNA FP: change in binding of human HNF4A to DNA, primary screen, biochemical, fluorescence polarization, FITC-DNA; Hepatocyte nuclear factor 4-alpha (Homo sapiens), P41235; 1 h; activity change, % at 10 µM; hit rate 0.3% among 360,000; in the data active = activity change above about 30%, passing the limit was not always enough;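 note: controls were the assay level and a saturating level of protein; the project sought stronger binding though the title names inhibitors; some compounds called inactive have numbers as strong as hits; positive values seem to mean higher polarization but the record does not say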
An asterisk follows results filed as active; i = inactive; ? = inconclusive; · = not tested or not shown; & = joins results of further samples. Not all compounds are listed (hit frequency here may not be typical).

SMILES | FGF22 binding | RanGTP-Impb inh | AF4-AF9 inh | UCH37 DUB inh | Vif TR-FRET | Ecoli growth | HNF4A DNA FP
COc1cccc(-c2noc(C3CCCN(C(=O)c4ccc(F)cc4)C3)n2)c1 (stereo not given) | i | 0.3 | 2.1 | 1.1 | · | 0.696 | -1.3
CCCCC(=O)Nc1ccc2oc(-c3cccnc3)nc2c1 | · | · | · | -155.4 | -5.8% | 0.785 | -0.7
COc1ccccc1N1C(=O)c2cccc3cccc(c23)C1=O | i | -2.4 | -2.3 | 1.6 | · | 0.661 | -1.3
NC(=O)c1ccc(S(=O)(=O)N2CCSCC2)cc1 | i | 2.4 | -6.7 | -2.4 | · | 0.713 | -2.1
CN(C)C(=O)c1ccc(NC(=O)CN2C(=O)NC3(CCCc4ccccc43)C2=O)cc1 (stereo not given) | i | 1.3 | -0.3 | 1.5 | -1.9% | 0.69 | -0.4
CS(=O)(=O)N(CC(=O)NCCSCc1ccco1)c1ccc(Cl)cc1 | i | 16.4* | -0.1 | 0.1 | -2.5% | 0.707 | -0.5
CCOc1ccc(NC(=O)c2sc3nc(C)nc(N4CCOCC4)c3c2C)cc1 | i | 4.8 | 2.5 | 3.9 | · | 0.573 | 0.7
O=S(=O)(c1ccccc1)c1nc(-c2ccc(F)cc2)oc1NCC1CCCO1 (stereo not given) | i | · | 4.6 | 3.2 | -4.7% | 0.697 | -1.2
O=C(CSc1nnc(-c2ccco2)c(-c2ccco2)n1)c1ccccc1 | i | ? | -5.3 | 14.4 | · | 0.733 | -18.9
O=C(COC(=O)COc1cccc(Br)c1)Nc1c(Cl)cccc1Cl | i | 4.4 | -2.9 | 4.3 | -12.0% | 0.734 | -1.4
O=C(N1CCOCC1)N(CCN1CCOCC1)Cc1cccc2ccccc12 | · | 2.7 | · | 0.6 | ? | 0.742 | -0.6
Cn1nnc(NC(=O)c2cccc([N+](=O)[O-])c2)n1 | i | -1.8 | -1.6 | -0.1 | -10.1% | 0.659 | -0.9
COc1ccc(CC(=O)OCC(=O)Nc2cccc(Br)c2)cc1 | i | 2.8 | -2.7 | -0.2 | -4.9% | 0.63 | -1.7
CN(c1ccccc1)S(=O)(=O)c1ccc(Cl)c(C(=O)Nc2ccc(N3CCOCC3)cc2)c1 | i | 4.5 | 3.9 | 2.8 | -0.8% | 0.721 | 3.4
CCCn1c(=O)c2sccc2n2c(CCCC(=O)NCc3cccnc3)nnc12 | i | -1.2 | 5.1 | -0.1 | -9.8% | 0.674 | 1.6
COc1ccc(C2(C)NC(=O)N(CC(=O)NCCC3=CCCCC3)C2=O)cc1OC (stereo not given) | · | -0.5 | · | 5.3 | ? | 0.71 | 0.9
COc1cc(/C=N/NC(=O)CCN2CCCCC2)ccc1O | i | -2.2 | -2.3 | · | -1.3% | · | 3.5
CC(=O)Nc1cccc(NC(=O)c2cccc(-c3ccc(O)cc3)c2)c1 | i | 2.5 | 4.9 | -0.2 | · | 0.675 | -1.1
COc1cccc(N2C(=O)Nc3ccc(Br)cc3C2(O)C(=O)NCCN(C)C)c1 (stereo not given) | i | ? | 0.2 | 1.9 | 4.8% | 0.626 | -1.3
CCCCN=C1NN=C(c2cccc([N+](=O)[O-])c2)CS1 | i | 3.9 | 5.0 | 9.2 | 21.1% | 0.696 | -1.8
CCCCOc1ccc(C(=O)NCCC(=O)NCCCC(=O)OCC)cc1 | i | 3.9 | -5.2 | 7.1 | -9.7% | 0.711 | 0.8
COc1ccc(-c2noc(N3CCCC(C(=O)Nc4ccc(F)cc4F)C3)n2)cc1 (stereo not given) | i | 7.2 | 3.0 | 1.8 | · | 0.637 | 1.9
CN(C(=O)c1cccnc1)c1nnc(-c2cccnc2)s1 | · | 0.5 | · | -4.5 | -10.2% | 0.72 | -1.4
CC(c1ccccc1)c1nnc(N)s1 (stereo not given) | i | 1.6 | -0.9 | 1.9 | · | 0.679 | 2.4
O=C(NNC(=O)c1cc(Br)ccc1Cl)c1csc(N2CCOCC2)n1 | i | -0.2 | -4.0 | 3.1 | · | 0.726 | 2.0

3 successive records from above, quoted:
SMILES | FGF22 binding | RanGTP-Impb inh | AF4-AF9 inh | UCH37 DUB inh | Vif TR-FRET | Ecoli growth | HNF4A DNA FP
O=C(CSc1nnc(-c2ccco2)c(-c2ccco2)n1)c1ccccc1 | i | ? | -5.3 | 14.4 | · | 0.733 | -18.9
O=C(COC(=O)COc1cccc(Br)c1)Nc1c(Cl)cccc1Cl | i | 4.4 | -2.9 | 4.3 | -12.0% | 0.734 | -1.4
O=C(N1CCOCC1)N(CCN1CCOCC1)Cc1cccc2ccccc12 | · | 2.7 | · | 0.6 | ? | 0.742 | -0.6

The listing picks up, repeating the 2 entries before the break.
SMILES | FGF22 binding | RanGTP-Impb inh | AF4-AF9 inh | UCH37 DUB inh | Vif TR-FRET | Ecoli growth | HNF4A DNA FP
CC(c1ccccc1)c1nnc(N)s1 (stereo not given) | i | 1.6 | -0.9 | 1.9 | · | 0.679 | 2.4
O=C(NNC(=O)c1cc(Br)ccc1Cl)c1csc(N2CCOCC2)n1 | i | -0.2 | -4.0 | 3.1 | · | 0.726 | 2.0
COc1ccc2cc(C(=O)Nc3c(C)n(C)n(-c4ccccc4)c3=O)sc(=O)c2c1OC | · | 1.3 | · | 2.7 | 19.6% | 0.729 | -2.6
Cc1cccc(OCC(=O)Nc2cccc(C(=O)Nc3ccccc3C(=O)O)c2)c1 | · | 3.9 | · | 4.5 | 4.4% | 0.683 | 2.1
COc1ccc(S(=O)(=O)Cc2ccc(C(=O)NC3CCCCC3)o2)cc1 | i | 2.2 | -3.8 | 0.1 | 2.2% | 0.652 | 0.0
Cc1nc(NCc2ccco2)c2c(C)c(C)sc2n1 | · | -1.2 | · | 3.5 | 1.9% | 0.692 | -2.8
Cc1ccccc1CNS(=O)(=O)c1ccccc1[N+](=O)[O-] | i | -2.3 | 2.1 | 2.6 | 3.9% | 0.729 | 3.9
COc1ccccc1-c1nnc2n1N=C(c1ccc(O)c(O)c1)CS2 | · | -3.4 | · | 9.0 | ? | 0.755 | -3.1
COc1ccc(NC(=O)c2cc(C3CCCCN3C(=O)c3cc(C(C)(C)C)nn3C)on2)c(C)c1 (stereo not given) | i | · | -4.9 | · | · | · | 0.3
CC1CCCCC1NC(=O)CN1CCN(Cc2ccccc2Cl)C1=O (stereo not given) | · | ? | · | 4.3 | -4.9% | 0.717 | 2.3
CN(C)CCn1c2c(c(SCC(=O)Nc3ccccc3C(F)(F)F)nc1=O)CCCC2 | i | -0.5 | 4.7 | 0.9 | -3.2% | 0.694 | 2.9
COc1ccccc1OCc1ccc(C(=O)N(C)C)o1 | · | 3.3 | · | 3.2 | -1.1% | 0.67 | -1.9
COc1ccc(/C=N/NC(=O)c2cnccn2)c(OC)c1OC | i | 5.5 | -2.6 | · | 8.4% | · | -5.0
CCc1cc2ccccc2nc1SCC(=O)Nc1cc(C)on1 | · | 1.5 | · | 1.4 | 0.1% | 0.75 | 1.3
Cc1[nH]n(-c2ccc([N+](=O)[O-])cc2)c(=O)c1C=NCCN1CCN(C(=O)c2ccc(F)cc2)CC1 | · | -1.1 | · | -0.6 | 1.6% | 0.684 | 2.2
CCNC(=O)C1(C)CCN1CCS(=O)(=O)c1ccc(C)cc1 (stereo not given) | i | · | -0.4 | · | · | · | 3.1
CC(=O)Nc1cccc(Oc2ncnc3scc(-c4ccc(C)cc4)c23)c1 | i | -0.1 | 2.0 | -1.0 | · | 0.629 | 1.8
CS(=O)(=O)N(CC(=O)N1CCCCCC1)c1cc(Cl)ccc1Cl | i | 4.9 | -1.4 | 3.3 | · | 0.708 | -1.4
COc1ccc(-n2nc(C(=O)NCC(=O)N3CCN(c4ccccc4OC)CC3)c3ccccc3c2=O)c(OC)c1 | i | -3.1 | 7.1 | -1.9 | · | 0.665 | 2.0
Cc1cc(C(=O)NCCCN2CCN(C3CCCCC3)CC2)n(-c2ccccc2)n1 | i | 2.3 | -2.3 | 5.8 | -2.3% | 0.704 | -1.9
COc1cccc(C(=O)C2CCCN(Cc3cccc(-n4cccn4)c3)C2)c1 (stereo not given) | i | -0.6 | 2.9 | 0.3 | 12.7% | 0.69 | 0.3
CCCCCCSC1=C(C#N)C(c2ccccc2)CC(=O)N1 (stereo not given) | i | 1.4 | 7.4 | 1.6 | -1.9% | 0.663 | 1.3
CCc1ccccc1S(=O)(=O)Cc1ccc(C(=O)NCCc2ccccc2)o1 | i | 1.3 | 0.2 | 0.3 | -8.4% | 0.672 | 3.7
NS(=O)(=O)c1ccc(CCNC(=O)Cc2cccs2)cc1 | i | -0.9 | -2.5 | 0.3 | · | 0.676 | 1.6
O=C(CCn1nc(-c2ccc(Cl)cc2)c2ccccc2c1=O)Nc1cccnc1 | i | 0.5 | 1.2 | 0.1 | · | 0.629 | 3.0
OC(c1ccccc1)C1CN(Cc2ccccc2)CCC1(O)c1ccccc1 (stereo not given) | i | 1.3 | 7.5 | 4.5 | ? | 0.634 | -2.1
COc1ccc(-c2nc(SCC(=O)N3CCOCC3)n[nH]2)cc1 | · | 1.6 | · | 1.2 | -4.2% | 0.739 | 0.4
Additional entries:
SMILES | FGF22 binding | RanGTP-Impb inh | AF4-AF9 inh | UCH37 DUB inh | Vif TR-FRET | Ecoli growth | HNF4A DNA FP
COc1ccc(C(CNC(=O)COc2cccc(C)c2)N2CCCC2)cc1 (stereo not given) | i | · | -0.4 | 1.6 | -7.1% | 0.691 | -2.2
O=C(NN1C(=O)CSC1=S)c1cccnc1 | i | -0.2 | 0.8 | 2.7 | 0.2% | 0.701 | 31.3
N#CCCN1CCN(S(=O)(=O)c2ccc(S(=O)(=O)N3CCOCC3)cc2)CC1 | i | 1.5 | -2.0 | 0.1 | -2.1%&-3.6% | 0.769 | -1.5
COc1ccc(-n2nnnc2SCC(=O)N2CCCC2=O)cc1 | i | · | -1.2 | 5.3 | -2.2% | 0.664 | 6.9
COC(=O)CCC(=O)Nc1cc(S(=O)(=O)Nc2ccc(Cl)cc2)ccc1N1CCOCC1 | · | -1.9 | · | 3.8 | · | 0.71 | -0.4
Cc1ccc(-c2csc3ncnc(N4CCN(c5ccccc5O)CC4)c23)cc1 | i | -1.3 | 0.3 | 4.1 | -11.1% | 0.66 | -2.9
CC(C)CCNC(=O)c1onc(CSc2ccc(Cl)cc2)c1C(=O)NCCC(C)C | i | 2.9 | -3.6 | 0.9 | 3.2% | 0.694 | -2.8
CC(C)(C)c1cc(C(=O)NN)n(Cc2ccc(Cl)cc2Cl)n1 | i | -1.8 | 1.9 | 3.2 | -16.3% | 0.708 | -1.4
CN(C)c1ncnc2c1ncn2C1OC(CO)C(O)C1O (stereo not given) | · | ? | · | 2.2 | -1.2% | · | 0.1
COc1ccc2[nH]c3c(c2c1)[C@@H]1CCN2C(=O)CCC[C@H](C3)[C@H]12 | i | 0.6 | -5.9 | -1.7 | · | · | -0.2
COc1ccc(OCC(=O)N2CCN(c3nnc(-c4ccccc4)c4ccccc34)CC2)cc1 | · | -2.9 | · | 3.7 | -5.5% | 0.664 | 0.7
O=C(Nc1cccc(O)c1)c1cc(-c2ccccc2Cl)on1 | i | -2.0 | -5.4 | 4.5 | · | 0.634 | 3.2

Screening data deposited in PubChem by several laboratories.
